D2 potentiator: potentiates the human D2 dopamine receptor allosterically | P14416 | DiscoveRx D2 beta-arrestin cells, luminescence, 90 min; 100% = 57 uM dopamine signal | potentiation, % (test concentration not listed) | 360,000 compounds, 0.23% hits; active = potentiation of 50% or more; inconclusive = 30% to 50%; inactive = 30% or less;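 note: compound concentration not given in the record; tested on top of an EC20 dose of dopamine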
Target sequence (P14416 whole entry, looked up): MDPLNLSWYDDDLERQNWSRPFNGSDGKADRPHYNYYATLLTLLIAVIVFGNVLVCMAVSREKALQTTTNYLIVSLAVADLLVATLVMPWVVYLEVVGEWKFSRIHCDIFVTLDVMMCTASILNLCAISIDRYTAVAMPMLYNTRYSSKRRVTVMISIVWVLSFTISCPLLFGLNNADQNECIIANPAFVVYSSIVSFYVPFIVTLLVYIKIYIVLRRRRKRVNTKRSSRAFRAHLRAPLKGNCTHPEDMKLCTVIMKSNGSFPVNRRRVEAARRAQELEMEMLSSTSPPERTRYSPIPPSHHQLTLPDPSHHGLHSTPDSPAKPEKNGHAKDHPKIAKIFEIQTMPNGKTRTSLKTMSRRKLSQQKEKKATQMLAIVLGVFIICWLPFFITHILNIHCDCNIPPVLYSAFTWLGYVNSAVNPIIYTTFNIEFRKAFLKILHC
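PathHunter beta-arrestin assay in DiscoveRx D2 cells. Compounds were added with an EC20 of dopamine (50 nM final) for 90 min at 37 deg C. Luminescence was read 1 h after detection reagent, with 57 uM dopamine as the EC100 control.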
TRPV1 PAM: enhances activation of the human vanilloid receptor TRPV1; TRPV1-expressing cells, Fluo-8 calcium influx, capsaicin EC20 potentiation; host cell line not named in the record; control for the full effect not named in the record; potentiation, % at 8.33 µM; Q8NER1; 320,000 compounds, 0.02% hits; active means potentiation above 80%; inconclusive means 30% to 80%; inactive means below 30%; note: 0% is about no effect
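Cells expressing TRPV1 were dye-loaded with Fluo-8 and read kinetically: 10 s baseline, 3 min after compound (agonist portion), then 2 min after EC20 capsaicin (allosteric enhancer portion). Calcium-bound dye fluorescence at 480/520 nm.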
TRPML1 agonist: activates the human TRPML1 channel; activation, % (concentration not given with the values); AID 624414; 410,000 compounds, 0.12% hits; TRPML1-expressing cells, Ca2+ dye fluorescence, FDSS; host cell line not named in the record; reference of the full effect not given here; in the data active = activation above about 50%; inconclusive = about 30% to 50%; inactive = below about 30%; note: 0% is about no effect; the text of the record puts the active cut at 80%
Target sequence (Q9GZU1 whole entry, looked up): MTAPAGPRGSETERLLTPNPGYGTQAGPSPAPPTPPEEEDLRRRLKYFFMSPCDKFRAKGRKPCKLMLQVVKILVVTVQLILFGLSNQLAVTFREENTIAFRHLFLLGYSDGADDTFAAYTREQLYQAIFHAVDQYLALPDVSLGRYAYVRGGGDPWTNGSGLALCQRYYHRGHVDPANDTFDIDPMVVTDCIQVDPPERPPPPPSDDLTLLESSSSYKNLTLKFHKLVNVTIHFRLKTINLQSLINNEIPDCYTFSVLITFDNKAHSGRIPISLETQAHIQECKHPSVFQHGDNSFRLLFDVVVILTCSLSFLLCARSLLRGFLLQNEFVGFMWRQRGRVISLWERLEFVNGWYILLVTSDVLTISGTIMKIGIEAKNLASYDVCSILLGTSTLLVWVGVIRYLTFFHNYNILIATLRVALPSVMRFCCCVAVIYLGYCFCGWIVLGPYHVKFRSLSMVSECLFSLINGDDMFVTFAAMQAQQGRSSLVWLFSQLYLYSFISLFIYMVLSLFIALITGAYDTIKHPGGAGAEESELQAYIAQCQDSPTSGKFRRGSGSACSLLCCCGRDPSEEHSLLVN
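Agonist activity was taken from a 110 s kinetic Ca2+ dye read on the FDSS after pinning compounds onto TRPML1-DL cells. The cells were seeded at 1,500/well with Tet inducer, incubated about 16 h, then dye-loaded at room temperature.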
Six1-Eya2 blk: inhibitors of human Six1/Eya2 interaction; activity change, % (test concentration not listed); AlphaScreen GST-Six1/His-Eya2 binding, biochemical; stronger effect = lower value; control for the full effect not named in the record; Q15475+O00167; 360,000 compounds, 0.56% hits; in the data active = activity change below about -65%; inconclusive = about -30% to -65%; inactive = above about -30%; note: % is set by controls: 0 for no effect and ±100 for the full control effect
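AlphaScreen with GST-Six1 and His-Eya2 (5X mix: 250 nM and 500 nM), glutathione donor and nickel acceptor beads; buffer 50 mM Tris pH 8.0, 300 mM NaCl, 1 mM TCEP; 1 h at 37 C in the dark.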
CtBP-E1A inh: CtBP/E1A binding inhibition | AlphaScreen GST-E1A/His-CtBP binding, 1536-well; stronger effect = lower value; control for the full effect not named in the record | activity change, % (concentration not given with the values) | 340,000 compounds, 0.49% hits; in the data active means activity change below about -65%; inconclusive means about -30% to -65%; inactive means above about -30%; note: % is set by controls: 0 for no effect and ±100 for the full control effect
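AlphaScreen with 125 nM GST-E1A and 125 nM His-CtBP (5X stocks) in Tris pH 8.0, 300 mM NaCl, BSA, Tween 20, TCEP. Compounds preincubated 2 h at 37 deg C, then glutathione donor/nickel acceptor beads added for 1 h at 37 deg C in dark.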
TRPML1 inh: blocks the human TRPML1 channel; TRPML1-inducible cells, Ca2+ dye fluorescence, FDSS; stronger effect = lower value; inhibition of EC80 agonist-evoked calcium signal; activity change, negative = inhibition, % (concentration not given with the values); 390,000 compounds, 0.02% hits; AID 624415; in the data active means activity change below about -50%; inconclusive means about -30% to -50%; inactive means above about -30%;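 note: stimulus is agonist 54-4 at its EC80 concentration; % is set by controls: 0 for no effect and ±100 for the full control effect; the text of the record puts the active cut at -80%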
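Tet-induced TRPML1-DL cells loaded with Ca8 no-wash calcium dye were read kinetically on FDSS. Compound addition was followed by EC80 agonist 54-4 (4 uM final); inhibition was read over 110 s.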
* hit, by the source's call; ? = inconclusive; / = no result given.

1: Cc1cnc(C(=O)OCc2ccc(COC(=O)c3cnc(C)cn3)cc2)cn1
2: CCOC(=O)CSc1nnc(-c2c[nH]c3ccccc23)n1CC
3: Cc1ccc2c(c1)N(C(=O)CCC(=O)NCc1cccc(Br)c1)CC(C)O2 (stereo unspecified)
4: O=c1c2cc3c(cc2[nH]c(=S)n1Cc1ccco1)OCO3
5: O=C(O)c1ccc(Cl)c(NC(=S)NC(=O)c2ccccc2[N+](=O)[O-])c1
6: Cc1ccc(S(=O)(=O)N2C[C@H]3n4c(=O)ccc(=O)n4C[C@H](OC(=O)NC4CC4)[C@@]3(O)C2)cc1
Assay by compound	1	2	3	4	5	6
D2 potentiator	0	-2	-13	-16	-5	0
TRPV1 PAM	19	1	-24	-13	?	/
TRPML1 agonist	-0.7	0.7	0.7	-0.2	0.0	-0.6
Six1-Eya2 blk	-4	-5	12	-1	-1	2
CtBP-E1A inh	-1	-5	-6	3	7	3
TRPML1 inh	8	33	-1	-2	1	8

7: O=C(COc1ncnc2cc([N+](=O)[O-])ccc12)NC1CCCCC1
8: Cc1ccc(C2(C)NC(=O)N(CC(=O)N(C)CC(=O)Nc3cccc(F)c3)C2=O)cc1 (stereo unspecified)
9: CC(CCO)Nc1nc2c([nH]1)c(=O)n(C)c(=O)n2C (stereo unspecified)
10: Cc1nc(N2CCOCC2)nc(N2CCCCC2)c1[N+](=O)[O-]
11: CCCOc1ccc(C(C)=O)cc1CSc1nc(O)cc(=O)[nH]1
12: CCc1ccc(N(CC(=O)Nc2ccc(NC(C)=O)cc2)S(=O)(=O)c2ccccc2)cc1
Assay by compound	7	8	9	10	11	12
D2 potentiator	-5	-3	-8	-9	-9	-2
TRPV1 PAM	-3	12	0	-9	5	-16
TRPML1 agonist	0.3	0.0	1.1	1.0	2.5	-0.3
Six1-Eya2 blk	-8	6	2	-15	-6	6
CtBP-E1A inh	?	-5	11	-12	-15	8
TRPML1 inh	3	-3	3	-9	2	9

13: Cc1ccccc1OCC(=O)NNC(=O)Nc1ccccc1
14: Cc1ccc(S(=O)(=O)N2CCOCC2)cc1NC(=O)COC(=O)c1cccnc1Cl
15: Fc1ccccc1-c1nc(NCc2ccccc2)c2ccccc2n1
16: COc1cccc(/C=C2\SC(=S)N(CCC(=O)NNC(=O)c3ccccc3OC)C2=O)c1
17: Cn1c(=O)c2nnn(/N=C(\c3ccccc3)C3CC3)c2n(C)c1=O
18: COc1ccc(Cl)cc1NC(=S)NCCCN1CCCC1=O
Assay by compound	13	14	15	16	17	18
D2 potentiator	-4	-4	0	-8	9	-7
TRPV1 PAM	7	3	7	6	10	11
TRPML1 agonist	0.9	-1.5	0.5	-0.3	-0.7	-0.1
Six1-Eya2 blk	-2	4	9	1	11	-17
CtBP-E1A inh	/	-11	-4	-6	1	/
TRPML1 inh	-1	7	10	3	-1	?

19: CN(C)CCCNc1cc(Cl)c(S(=O)(=O)N2CCCCC2)cc1C(=O)O
20: CN(NC1OC(=O)c2ccccc21)c1ncc(C(F)(F)F)cc1Cl (stereo unspecified)
21: CCOCCCNC(=S)N1CCN(Cc2ccc3c(c2)OCO3)CC1
22: Nc1c(Cl)cc(-c2csc(NC(CO)c3nc4ccccc4n3CCOCCO)n2)cc1Cl (stereo unspecified)
23: O=S(=O)(NCc1ccco1)c1cccc2cccnc12
24: O=C(C1=COCCO1)N1CCN(c2nc3ccc([N+](=O)[O-])cc3s2)CC1
Assay by compound	19	20	21	22	23	24
D2 potentiator	-11	-15	-9	-10	-12	17
TRPV1 PAM	-5	5	5	/	-1	?
TRPML1 agonist	0.7	-0.5	0.2	1.7	1.2	-0.3
Six1-Eya2 blk	-1	-2	4	-5	2	-2
CtBP-E1A inh	-1	/	-21	-7	-1	7
TRPML1 inh	0	0	6	-3	0	0

25: CCCNC(=O)Nc1ccc2c(c1)N(C)C(=O)c1ccccc1S2
26: Cn1c(SCc2c(Cl)cccc2Cl)nnc1-c1cccs1
27: O=C(CC(=O)NC1CCCCC1)N/N=C/c1ccccc1[N+](=O)[O-]
28: Cc1cccc(C)c1NC(=O)CSc1nnc(Cc2ccccc2)o1
29: Clc1ncccc1-c1nc2ccccc2s1
30: CC(=O)c1ccc(N(C(=O)CNC(=O)c2ccco2)C(C(=O)NCC2CCCO2)c2ccccc2)cc1 (stereo unspecified)
Assay by compound	25	26	27	28	29	30
D2 potentiator	3	3	-12	-3	-5	-6
TRPV1 PAM	-10	14	10	-3	-6	4
TRPML1 agonist	0.4	-0.7	-0.3	1.0	1.2	0.9
Six1-Eya2 blk	-1	-1	-2	-6	12	2
CtBP-E1A inh	-9	-1	6	-3	/	-3
TRPML1 inh	16	9	26	1	-13	-13

31: CN(CC1COc2ccccc2O1)C(=O)CSc1nncs1 (stereo unspecified)
32: Cc1ccc(NC(=O)CN(C)C(=O)c2ccc3[nH]c4c(c3c2)CC(C)CC4)cc1 (stereo unspecified)
33: O=C(CCc1nc2ccccc2c(=O)[nH]1)OCc1cccc(C(F)(F)F)c1
34: O=C(O)C1CCN(C(=O)c2ccccc2N2C(=O)[C@@H]3Cc4c([nH]c5ccccc45)C(c4cccc(Cl)c4)N3C2=O)CC1 (stereo partly specified)
35: O=C(Nc1ccccc1Cl)NC1(C(=O)NCCCN2CCOCC2)CCCCC1
36: CCOC(=O)C1CCN(S(=O)(=O)c2ccc(C(C)=O)cc2)CC1
Assay by compound	31	32	33	34	35	36
D2 potentiator	-21	0	-14	-7	-30	0
TRPV1 PAM	/	?	8	-1	-1	-11
TRPML1 agonist	-0.2	0.9	4.5	/	1.0	0.5
Six1-Eya2 blk	-3	-23	4	-2	2	-12
CtBP-E1A inh	-1	-1	8	0	2	-22
TRPML1 inh	-5	-12	7	/	46	-19

37: O=c1cc(N2CCN(Cc3ccccc3)CC2)c(-c2ccccc2)n[nH]1
38: CC/C(=N/Nc1cccc(C)c1)c1cnnc(SC)n1
39: Cc1ccc(S(=O)(=O)N2CCOCC2)cc1C(=O)OCC(=O)NC1CC1
40: CC(C)CC(=O)[C@@H](O)Cc1ccc(O)cc1
41: COc1ccc(/C=N\NC(=O)c2cc(OCC(F)(F)F)ccc2OCC(F)(F)F)cc1
42: N/C(=N\OC(=O)COc1ccc(Br)cc1Cl)c1cccnc1
Assay by compound	37	38	39	40	41	42
D2 potentiator	-10	-6	-2	/	-9	4
TRPV1 PAM	1	-1	0	/	9	-1
TRPML1 agonist	-1.0	2.1	0.3	-0.5	0.0	1.5
Six1-Eya2 blk	5	-2	-1	9	-3	13
CtBP-E1A inh	5	0	-1	5	8	7
TRPML1 inh	-2	-9	-19	/	19	14

43: CCN(c1ccccc1)c1cc(C)nc2ncnn12
44: CCCCn1nnnc1C(c1cc2ccccc2o1)N(CCN(C)C)Cc1ccccc1 (stereo unspecified)
45: COc1ccc(CSc2nnnn2C)cc1F
46: Cc1cc(N2CCCC2)nc2ccc(NC(=S)NCCCOC(C)C)cc12
47: CSc1nc(-c2ccccc2)nc(SC)c1C(C)=O
48: Cc1ccc(-c2n[nH]c(=S)n2/N=C/c2ccc(C)s2)cc1
Assay by compound	43	44	45	46	47	48
D2 potentiator	4	/	11	-3	-3	-17
TRPV1 PAM	-4	/	2	5	3	12
TRPML1 agonist	1.0	-0.1	-0.6	8.3	3.9	2.3
Six1-Eya2 blk	3	-15	0	-2	9	-10
CtBP-E1A inh	2	-15	6	-2	5	-9
TRPML1 inh	25	/	-6	48	13	16

49: CCOC(=O)c1sc2nc(NC(=O)C(C)(C)C)sc2c1C
50: CCOc1ccc(NC(=O)CSc2nc(N3CCOCC3)nc(N3CCOCC3)n2)cc1
51: CCn1cc(C(=O)N[C@@H](CCSC)C(=O)NC(C)(C)CO)c(=O)c2cc3c(cc21)OCO3
52: CC(C)(CO)NC(=O)C(Cc1ccccc1)N1C(=O)c2ccccc2C1=O (stereo unspecified)
53: CCN(C(=S)NC(=O)C1CC1)c1ccccc1
54: CCOc1cc(C=C(C#N)C#N)ccc1Oc1ccc([N+](=O)[O-])cn1
Assay by compound	49	50	51	52	53	54
D2 potentiator	11	14	-15	-10	-15	-7
TRPV1 PAM	/	-6	6	2	-14	5
TRPML1 agonist	-1.1	0.3	0.8	1.6	0.2	4.7
Six1-Eya2 blk	-1	-1	-3	16	-7	-11
CtBP-E1A inh	5	9	/	/	1	-6
TRPML1 inh	-20	5	0	7	1	-13

Complete entries, quoted from the list. Order of screens: D2 potentiator	TRPV1 PAM	TRPML1 agonist	Six1-Eya2 blk	CtBP-E1A inh	TRPML1 inh
Cn1c(=O)c2nnn(/N=C(\c3ccccc3)C3CC3)c2n(C)c1=O is listed with 9	10	-0.7	11	1	-1
N/C(=N\OC(=O)COc1ccc(Br)cc1Cl)c1cccnc1 is listed with 4	-1	1.5	13	7	14
CCCNC(=O)Nc1ccc2c(c1)N(C)C(=O)c1ccccc1S2 is listed with 3	-10	0.4	-1	-9	16

(continued)
55: CCN(CC)c1nc(C=Cc2ccc(N(C)C)cc2)c2nccnc2n1
56: CC(C)(C)NC(=O)CN(C(=O)CS(=O)CC(=O)Nc1ccc(F)cc1)c1ccc(F)c(Cl)c1 (stereo unspecified)
57: O=C(COCc1ccccc1)N[C@@H]1c2ccccc2CC[C@@H]1OCc1ccccc1
58: COc1ccc(-c2c(NC(=O)c3ccco3)n(C)c3ccccc3c2=O)cc1
59: Cc1ccsc1C(=O)OCC(=O)N1C(C)CCCC1C (stereo unspecified)
60: CC(=O)O[C@H]1[C@H](C)OC=C[C@@H]1OC(C)=O
Assay by compound	55	56	57	58	59	60
D2 potentiator	-13	-11	-5	-10	-5	0
TRPV1 PAM	/	-6	/	-8	/	1
TRPML1 agonist	64*	-0.1	0.0	-0.3	-0.6	-0.2
Six1-Eya2 blk	-3	-1	-1	3	1	-4
CtBP-E1A inh	-6	2	22	2	/	0
TRPML1 inh	-3	-1	-15	25	-10	2

2 entries picked at random from those above:
49: CCOC(=O)c1sc2nc(NC(=O)C(C)(C)C)sc2c1C
54: CCOc1cc(C=C(C#N)C#N)ccc1Oc1ccc([N+](=O)[O-])cn1
Assay by compound	49	54
D2 potentiator	11	-7
TRPV1 PAM	/	5
TRPML1 agonist	-1.1	4.7
Six1-Eya2 blk	-1	-11
CtBP-E1A inh	5	-6
TRPML1 inh	-20	-13

Later entries:
61: COc1cccc2c1OC1(C)CC2NC(=O)N1c1cccc(C(=O)Nc2ccc3c(c2)OCCO3)c1 (stereo unspecified)
62: CC(=O)N1CCN(CC(=O)Nc2ccccc2C(=O)Nc2ccccc2)CC1
63: Cc1cc(NC(=O)CCCC(=O)N(CC(=O)NCCc2ccccc2)Cc2ccc(F)cc2)no1
64: NC(=O)c1c[nH]c2ccccc12
65: Cc1cccc(N2CCN(S(=O)(=O)c3ccc4c(c3)OCCO4)CC2)c1C
66: COc1cccc(NC(=O)CN2C(=O)NC(c3ccccc3)(c3ccccc3)C2=O)c1
67: Cc1cc2oc(C(=O)N(Cc3ccccc3)C3CCS(=O)(=O)C3)cc(=O)c2cc1Cl (stereo unspecified)
68: O=C(Nc1ccc(F)cc1)C1CCN(c2nnnn2-c2ccccc2)CC1
Assay by compound	61	62	63	64	65	66	67	68
D2 potentiator	5	1	-12	-29	-4	-12	-12	6
TRPV1 PAM	2	/	-17	21	-3	25	-8	-15
TRPML1 agonist	0.5	0.8	0.1	/	2.2	2.0	0.9	-1.0
Six1-Eya2 blk	-4	8	0	1	12	-1	-11	-2
CtBP-E1A inh	-2	6	1	-8	23	-4	0	4
TRPML1 inh	16	8	-4	/	11	1	15	14

Bioassay records as filed in PubChem.
